PrP 5UTR inh: inhibition of PrP 5' UTR reporter expression | cell-based PrP 5' UTR mRNA reporter, plate reader | inhibition, % (no concentration beside the values) | actives 0.35% (n = 340,000) | AID 488862;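 active = every replicate at 50% or more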;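 note: 0 = median of the neutral control wells; tested in H4 reporter cells; numbers are from one replicate; inactives centre near -14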
Mtb hypoxia rep: reduces hypoxia-regulated biosensor signal in M. tuberculosis. M. tuberculosis hypoxia-regulated fluorescent reporter, fluorescence. fluorescence inhibition, % (concentration not given with the values). actives 0.1% (n = 300,000). AID 1159583;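 active = 35 to 45% if threefold the growth effect, above 45% if 1.5-fold the growth effect; inactive = the rest, general growth blockers included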;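 note: wells of about 50 µL received 100 nL stock; 0% = vehicle wells and 100% = reference inhibitor wells; whole bacteria with a GFP reporter of the hypoxia response; strong numbers were not always called active; many hits fall short of the cut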
Bead autofluor: compound fluorescence in toxin protease inhibitor counterscreen. compound autofluorescence counterscreen, microsphere flow cytometry; stronger effect = higher value. fluorescence intensity (test concentration not listed). actives 3.1% (n = 360,000). AID 624483;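 active = at least 3 SD above the mean of all compounds, about 16000 in these data; inconclusive = too few beads counted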;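 note: 100 nL of 1 mM stock went into each well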
ugtP null kill: kills S. aureus RN4220 lacking UgtP; S. aureus RN4220 ugtP deletion, OD600 growth, 16 h; some inactives read as strong as hits; growth inhibition, % (no concentration beside the values); actives 0.54% (n = 330,000);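 active = z-score under -3 and OD600 up to 0.15 on both plates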;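 note: plate controls were untreated wells for no effect and antibiotic for full effect; wells of about 80 µL received 100 nL stock; the first replicate is given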
RN4220 kill: S. aureus RN4220 growth inhibition. OD600, 16 h. inhibition, % (no concentration beside the values). actives 0.33% (n = 330,000). AID 1259311;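 active = z-score of -3 or lower and OD600 up to 0.18 on both plates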;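 note: plate controls were untreated cells for no effect and reference antibiotic for full effect; stock transfer was 100 nL into about 80 µL; one replicate is shown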
BJeLR viability: kills HRASV12-expressing BJeLR cells | BJeLR (HRASV12) viability, CellTiter-Glo ATP luminescence, 48 h; reference of the scale not given here | inhibition, % (concentration not given with the values) | actives 0.17% (n = 300,000) | AID 1554;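 active = replicate mean above 50%; inconclusive = above 50% but judged a plate artefact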;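 note: 50 nL library stock added to about 25 µL; numbers are from one replicate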
Mtb hypoxia rep growth: also measured in Mtb hypoxia rep; calls as there; growth inhibition, %; measured here: M. tuberculosis growth (absorbance);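 0% = vehicle and 100% = reference antibiotic; read after six days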
* hit, by the source's call.

O=C(CN(Cc1ccc(F)cc1)C(=O)c1csnn1)NCc1ccccc1 was read as PrP 5UTR inh -23.6, Mtb hypoxia rep 6.6, Bead autofluor 3841, ugtP null kill 4.7, RN4220 kill 0.5, BJeLR viability 3.3 and Mtb hypoxia rep growth 3.1.
Screening CN(C)S(=O)(=O)Oc1ccsc1C(=O)Nc1ccccc1Cl returned PrP 5UTR inh -9.0, Mtb hypoxia rep 25.0, Bead autofluor 2920, ugtP null kill 7.9, RN4220 kill 3.3, BJeLR viability 3.6 and Mtb hypoxia rep growth 12.9.
Screening COc1ccc(NC(=O)CC2C(=O)N(C)C(=S)N2CCc2ccc(F)cc2)cc1 (stereo unspecified) returned Mtb hypoxia rep 15.7, Bead autofluor 4673, ugtP null kill -15.5, RN4220 kill -1.0, BJeLR viability 2.0 and Mtb hypoxia rep growth 1.0.
Cc1ccc(C(=O)N(Cc2cccs2)C2CCS(=O)(=O)C2)cc1 (stereo unspecified) was read as PrP 5UTR inh 1.3, Mtb hypoxia rep -5.8, Bead autofluor 4118, ugtP null kill -1.8, RN4220 kill -2.0, BJeLR viability 3.7 and Mtb hypoxia rep growth -5.1.
Screening O=S(=O)(NCCS(=O)(=O)N1CCN(c2ccccc2)CC1)c1ccc(F)cc1 returned PrP 5UTR inh -16.8, Mtb hypoxia rep -1.2, Bead autofluor 4448, ugtP null kill 10.9, RN4220 kill -1.4, BJeLR viability -0.1 and Mtb hypoxia rep growth -5.9.
For O=C(Nc1scc(-c2cccs2)c1C(=O)O)c1cccs1 the results were PrP 5UTR inh -28.1, Mtb hypoxia rep 17.6, Bead autofluor 2355, ugtP null kill -15.5, RN4220 kill 12.7, BJeLR viability -5.4 and Mtb hypoxia rep growth 11.3.
For O=C(CNC(=O)c1ccccc1F)NN=Cc1cccs1 the results were Mtb hypoxia rep 1.4, ugtP null kill 9.5, RN4220 kill 0.7 and Mtb hypoxia rep growth -3.5.
CCOC(=O)Nc1ccc(NS(=O)(=O)c2ccc(C)cc2)cc1 was read as PrP 5UTR inh -19.7, Mtb hypoxia rep 4.1, Bead autofluor 10333, ugtP null kill -0.4, RN4220 kill 4.8, BJeLR viability 0.4 and Mtb hypoxia rep growth 4.7.
Screening C=CCn1c(O)c(C(C)=NC2CCN(Cc3ccccc3)CC2)c(=O)[nH]c1=O returned Mtb hypoxia rep -4.7, Bead autofluor 5938, ugtP null kill 5.7, RN4220 kill 1.7, BJeLR viability 3.6 and Mtb hypoxia rep growth 4.5.
Screening O=C(CN1C(=O)NC2(CCc3ccccc32)C1=O)c1cccs1 (stereo unspecified) returned Mtb hypoxia rep -13.7, Bead autofluor 6093, ugtP null kill -3.6, RN4220 kill -0.3 and Mtb hypoxia rep growth 9.5.
`Cc1ccc2cccc(SCC(=O)Nc3ccc(F)cc3)c2n1` gave PrP 5UTR inh -31.1, Mtb hypoxia rep 18.2, Bead autofluor 4202, ugtP null kill 4.7, RN4220 kill 7.0, BJeLR viability -11.8 and Mtb hypoxia rep growth 7.5.
For CC(=O)N1CCC(C(=O)OCc2ccc(Cl)cc2)(c2ccccc2)CC1 the results were PrP 5UTR inh -1.0, Mtb hypoxia rep -9.2, Bead autofluor 3471, ugtP null kill -1.8, RN4220 kill -1.8, BJeLR viability -1.1 and Mtb hypoxia rep growth 2.6.
Cc1cc(Cl)ccc1NC(=S)NCc1ccc(F)cc1 was read as PrP 5UTR inh -38.0, Mtb hypoxia rep 8.9, Bead autofluor 4400, ugtP null kill -2.9, RN4220 kill -1.8, BJeLR viability -2.7 and Mtb hypoxia rep growth 0.4.
For COc1ccc(Cn2c(N)c(C(=O)NCc3ccco3)c3nc4ccccc4nc32)cc1OC the results were PrP 5UTR inh 2.3, Mtb hypoxia rep -4.8, Bead autofluor 3665, ugtP null kill 13.9, RN4220 kill 23.4 and Mtb hypoxia rep growth 9.4.
Cc1cc(C(=O)OCC(=O)N2CCc3ccccc32)c(C)o1 was read as PrP 5UTR inh -66.0, Mtb hypoxia rep 1.0, Bead autofluor 3246, ugtP null kill -3.6, RN4220 kill -9.2, BJeLR viability -9.7 and Mtb hypoxia rep growth 0.0.
COc1ccc(-n2c(=O)cc(N3CCc4ccccc43)[nH]c2=O)cc1 was read as PrP 5UTR inh -3.7, Mtb hypoxia rep -20.6, Bead autofluor 5959, ugtP null kill -4.1, RN4220 kill -0.6, BJeLR viability -6.2 and Mtb hypoxia rep growth -6.7.
COc1ccc(Cl)cc1NC(=O)C1CCN(C(=O)C2CC(=O)N(c3ccc(C)cc3)C2)CC1 (stereo unspecified) was read as PrP 5UTR inh -0.4, Bead autofluor 3029 and BJeLR viability -9.0.
O=C1c2ccccc2C(=O)N1COc1ccc(S(=O)(=O)N2CCOCC2)cc1[N+](=O)[O-] was read as PrP 5UTR inh -31.6, Mtb hypoxia rep 3.7, Bead autofluor 5238, ugtP null kill 7.1, RN4220 kill 1.6, BJeLR viability -5.7 and Mtb hypoxia rep growth 3.6.
CCCC(=O)Nc1nc(C)c(-c2csc(Nc3cc(OC)ccc3OC)n2)s1 was read as PrP 5UTR inh -6.4, Mtb hypoxia rep 4.8, Bead autofluor 3681, ugtP null kill -4.2, RN4220 kill -8.7, BJeLR viability 5.7 and Mtb hypoxia rep growth 4.0.
Screening O=C(NNC(=O)C1CC1c1ccccc1)Nc1ccccc1 (stereo unspecified) returned PrP 5UTR inh -2.4, Mtb hypoxia rep 4.1, Bead autofluor 2421, ugtP null kill 2.3, RN4220 kill 3.6, BJeLR viability 8.9 and Mtb hypoxia rep growth 7.1.

The final 3 entries of the section above open the next one:
O=C1c2ccccc2C(=O)N1COc1ccc(S(=O)(=O)N2CCOCC2)cc1[N+](=O)[O-] was read as PrP 5UTR inh -31.6, Mtb hypoxia rep 3.7, Bead autofluor 5238, ugtP null kill 7.1, RN4220 kill 1.6, BJeLR viability -5.7 and Mtb hypoxia rep growth 3.6.
CCCC(=O)Nc1nc(C)c(-c2csc(Nc3cc(OC)ccc3OC)n2)s1 was read as PrP 5UTR inh -6.4, Mtb hypoxia rep 4.8, Bead autofluor 3681, ugtP null kill -4.2, RN4220 kill -8.7, BJeLR viability 5.7 and Mtb hypoxia rep growth 4.0.
Screening O=C(NNC(=O)C1CC1c1ccccc1)Nc1ccccc1 (stereo unspecified) returned PrP 5UTR inh -2.4, Mtb hypoxia rep 4.1, Bead autofluor 2421, ugtP null kill 2.3, RN4220 kill 3.6, BJeLR viability 8.9 and Mtb hypoxia rep growth 7.1.
CN(CCc1ccccc1)C(=O)c1cccc(NC(=O)Cc2cccc([N+](=O)[O-])c2)c1 was read as PrP 5UTR inh -5.6, Mtb hypoxia rep -6.8, Bead autofluor 3589, ugtP null kill 1.8, RN4220 kill 0.6 and Mtb hypoxia rep growth 0.9.
For COCCNC(=O)/C(C#N)=C1\N=C(N)c2ccccc21 the results were PrP 5UTR inh 0.2, Bead autofluor 2040 and BJeLR viability -15.6.
Screening CCCCN1C(=O)C(=O)N(CC(=O)N2CCc3ccccc32)C1=O returned PrP 5UTR inh -7.2, Mtb hypoxia rep 5.0, Bead autofluor 4131, ugtP null kill 1.1, RN4220 kill 1.0 and Mtb hypoxia rep growth 6.2.
Screening Cc1ccc(S(=O)(=O)c2cc3c(=O)n4ccccc4nc3n(C)c2=N)cc1C returned PrP 5UTR inh -4.8, Mtb hypoxia rep 9.8, Bead autofluor 5316, ugtP null kill 3.4, RN4220 kill 0.7, BJeLR viability -6.1 and Mtb hypoxia rep growth -5.6.
`C[C@]12CCC3C(CC[C@H]4C[C@@H](O)CC[C@]34C)C1CC[C@@H]2OC(=O)[C@H](N)CCCCN` (stereo partly specified) gave PrP 5UTR inh -20.1, Mtb hypoxia rep 13.6, Bead autofluor 4278, ugtP null kill 7.0, RN4220 kill -2.6 and Mtb hypoxia rep growth 11.7.
`COc1ccc(NC(=O)CN(C)C(=O)c2cc(-c3ccncc3)nc3ccccc23)cc1` gave PrP 5UTR inh -21.0, Mtb hypoxia rep 4.8, Bead autofluor 7248, ugtP null kill 8.2, RN4220 kill -3.7, BJeLR viability -31.8 and Mtb hypoxia rep growth 10.2.
Screening CCN1C(=O)C(Cc2nc3ccccc3c(=O)n2C)c2ccccc21 (stereo unspecified) returned PrP 5UTR inh -20.5, Bead autofluor 2885, ugtP null kill -12.2, RN4220 kill -1.6 and BJeLR viability 4.4.
For Cc1n[nH]c(=O)c2c(NC(=O)CSc3ccc(Br)cc3)oc(C)c12 the results were PrP 5UTR inh -13.1, Mtb hypoxia rep -0.1, Bead autofluor inconclusive, ugtP null kill 10.0, RN4220 kill 5.2, BJeLR viability 0.5 and Mtb hypoxia rep growth 1.5.
For Cc1ccc2cc(-c3noc(C4CCCO4)n3)c(=O)[nH]c2c1 (stereo unspecified) the results were PrP 5UTR inh -19.7, Mtb hypoxia rep -0.2, Bead autofluor 5683, ugtP null kill 4.2, RN4220 kill 5.4, BJeLR viability 3.8 and Mtb hypoxia rep growth 13.2.
For Cc1ccc(S(=O)(=O)NCC[C@@]2(C)C3CCC2(C)C(=O)C3)cc1 (stereo partly specified) the results were PrP 5UTR inh -35.4, Mtb hypoxia rep 6.9, Bead autofluor 4141, ugtP null kill 6.3, RN4220 kill 11.4, BJeLR viability -0.1 and Mtb hypoxia rep growth 7.6.
CN=C1SC(CC(=O)Nc2sc3c(c2C#N)CCCC3)C(=O)N1C (stereo unspecified) was read as PrP 5UTR inh -15.5, Mtb hypoxia rep 16.3, Bead autofluor 3095, ugtP null kill 14.4, RN4220 kill 14.4, BJeLR viability -0.5 and Mtb hypoxia rep growth 6.1.
For CC1=C(C(=O)OCCCBr)C(c2ccc3c(c2)OCO3)NC(=O)N1 (stereo unspecified) the results were PrP 5UTR inh -10.9, Mtb hypoxia rep 6.9, Bead autofluor 2965, ugtP null kill -1.5, RN4220 kill 5.0, BJeLR viability 0.3 and Mtb hypoxia rep growth -6.3.
`O=C(NN=Cc1ccc(OC(F)F)cc1OC(F)F)NC1CCCCC1` gave Mtb hypoxia rep 6.6, ugtP null kill 0.2, RN4220 kill 5.9 and Mtb hypoxia rep growth 14.2.
Screening CC(C)n1nc(C(=O)NNC(=O)c2ccc(OC(F)F)cc2)c2ccccc2c1=O returned PrP 5UTR inh -13.1, Mtb hypoxia rep 1.4, Bead autofluor 3298, ugtP null kill 0.9, RN4220 kill 3.2 and Mtb hypoxia rep growth -1.7.
Screening O=S(=O)(c1ccccc1)n1cc(-c2ccccn2)c(N2CCOCC2)n1 returned PrP 5UTR inh -7.8, Mtb hypoxia rep 0.6, Bead autofluor 3085, ugtP null kill 6.9, RN4220 kill 7.3, BJeLR viability -7.9 and Mtb hypoxia rep growth -1.4.
`Cc1ccc(Cl)cc1N1CCN(S(=O)(=O)c2cccc(S(=O)(=O)N3CCCC3)c2)CC1` gave PrP 5UTR inh -5.4, Bead autofluor 6030, ugtP null kill -13.0, RN4220 kill -3.2 and BJeLR viability -2.0.
Screening Cc1ccc(NC(=O)c2ccc(OC(=O)C(C)Oc3ccc(Cl)cc3C)cc2)cc1 (stereo unspecified) returned PrP 5UTR inh -77.9, Mtb hypoxia rep -2.6, Bead autofluor 2206, ugtP null kill 4.6, RN4220 kill -0.5, BJeLR viability -14.0 and Mtb hypoxia rep growth 4.5.
Screening O=c1n(Cc2ccccc2F)c2ccccc2n1Cc1ccccc1F returned PrP 5UTR inh -2.8, Mtb hypoxia rep 11.5, Bead autofluor 4741, ugtP null kill 15.8, RN4220 kill -0.5, BJeLR viability -10.0 and Mtb hypoxia rep growth 4.6.
`CC(=O)c1ccc(-c2cc([C@H]3[C@H]4C=CC[C@@H](C)[C@@H]4C(=O)N3Cc3ccccc3)ccc2F)cc1` gave PrP 5UTR inh -18.0, Bead autofluor 3917 and BJeLR viability -5.1.
For CCOP(=O)(Cc1ccc(C(=O)CC)o1)OCC the results were PrP 5UTR inh -24.7, Mtb hypoxia rep 9.1, Bead autofluor 4327, ugtP null kill 1.7, RN4220 kill 1.5, BJeLR viability -7.3 and Mtb hypoxia rep growth -3.5.
For COc1cc(C=NNC(=O)c2ccc(C)nc2)ccc1OC(=O)c1cccc(F)c1 the results were Mtb hypoxia rep 4.7, ugtP null kill -4.7, RN4220 kill 5.0 and Mtb hypoxia rep growth 3.6.
For COc1ccc(CCN2C(=O)CC(C(C)c3ccccc3)C2=O)cc1OC (stereo unspecified) the results were PrP 5UTR inh -30.1, Mtb hypoxia rep 8.4, Bead autofluor 2276, ugtP null kill -3.8, RN4220 kill 4.2, BJeLR viability 4.7 and Mtb hypoxia rep growth 1.4.

Screens as filed in PubChem.
